Calb biofilm kill: mixture kills Candida albicans biofilm cells; C. albicans biofilm persisters + clotrimazole, fluorescence viability; primary screen in compound mixtures of four per well; inhibition, % at 7.6 µM; 120,000 compounds, 0.02% hits;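 active means inhibition above 30.3% in the primary screen of four-compound pools, then above 30% when the compound was retested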;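 further: compounds exposed to preformed 24 h biofilms for 48 h; the number belongs to the whole pool; some results filed as inactive read as strong as hits; inactives centre near 12; 0% = biofilm with clotrimazole alone and 100% = kill control; retested singly at about 60 µM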
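Probe or stimulus – Clotrimazole 50 µg/mL co-treatment · System – C. albicans biofilms · Schedule – 24 h biofilm formation, then 48 h compound exposure, 37 °C · Evaluation – percent inhibition of biofilm viability · Technique – 2-h Alamar Blue fluorescence, 535/590 nm excitation/emission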
* = called active by the depositor. This is a subset; count on the stated rates, not on these rows.

The first 3 compounds as a preview:
SMILES | Calb biofilm kill
Cc1nn(C)c(C)c1NS(=O)(=O)c1ccc(N2CCCC2=O)cc1 | 22
O=C(Nc1ncc(Cc2cccc(C(F)(F)F)c2)s1)c1ccc(-c2cccc([N+](=O)[O-])c2)o1 | 10
O=C1CC(CSc2ccc(Cl)cc2)=NN1 | 4

This part in full, from the start:
SMILES | Calb biofilm kill
Cc1nn(C)c(C)c1NS(=O)(=O)c1ccc(N2CCCC2=O)cc1 | 22
O=C(Nc1ncc(Cc2cccc(C(F)(F)F)c2)s1)c1ccc(-c2cccc([N+](=O)[O-])c2)o1 | 10
O=C1CC(CSc2ccc(Cl)cc2)=NN1 | 4
O=C(CCCn1cc([N+](=O)[O-])cn1)Nc1cccnc1 | 16
O=C(NCc1nc2ccccc2[nH]1)C1=C[C@H](c2ccccc2)C[C@H](OCCCCO)O1 | 22
Cc1cc(C(F)(F)F)nc2c(Cl)c(C(C)(C)C)nn12 | 8
Cc1csc(NC(=O)[C@@H]2CCCN2C(=O)c2cccs2)n1 | 16
CCOC(=O)c1nc2cc3n(c(CC(C)C)c-2c1C)CC(C)=C3C | 12
O=C(Nc1ccc(N2CCCC2)c(Cl)c1)c1cccc(-c2cc3ccccc3oc2=O)c1 | 10
O=C1c2ccccc2-c2c1cccc2C(=O)N1CCCCC1 | 16
O=c1c2ccccc2ncn1Cc1ccc(Cl)cc1 | 2
COc1cc(S(=O)(=O)n2nnc3ccccc32)c(OC)cc1Cl | 14
O=C(/C=C/Nc1ccccc1)C(F)(F)F | 15
COc1cc2c(cc1OC)C(c1cc3cc4c(cc3[nH]c1=O)OCO4)N(C(=O)C1CC1)CC2 (centres undefined) | 5
COc1ccc2nc(-c3ccc(Cl)cc3)cc(C(=O)O)c2c1 | 19
Cc1[nH]c2ccccc2c1C(=O)CN1CC(C)OC(C)C1 (centres undefined) | 15
COc1ccc2nc(N/C(=N/S(=O)(=O)c3cccs3)c3ccccc3Cl)sc2c1 | 7
COc1ccc(N2CCN(C(=O)NC3CCCCC3)CC2)cc1 | 13
O=c1[nH]c2ccccc2nc1/C=C/c1ccccc1 | 1
CCN(CC)S(=O)(=O)c1ccc(OC)c(NC(=O)CSc2cc(Cl)ccc2Cl)c1 | 5
COc1ccc(OC)c2[nH]c(=O)c(CCNC(=O)c3cccs3)cc12 | 13
CCOC(=O)c1ccc(NC(=O)CSc2nc3sc(C(=O)O)c(C)c3c(=O)[nH]2)cc1 | 9
CCOC(=O)c1ccc(N2C(=O)C3C(/C=C/c4ccccc4)OC4(C(=O)c5ccccc5C4=O)C3C2=O)cc1 (centres undefined) | 8
CC(C)=CCCC1=CCC(/C=N/NC(N)=O)C(C)C1 (centres undefined) | 22
COc1ccc(N=Cc2cccc(C)c2O)cc1Cl | 15
SMILES | Calb biofilm kill
CC(C)CC1=NN2C(=N)/C(=C\c3coc4ccccc4c3=O)C(=O)N=C2S1 | 6
CC(C)c1cccc(C(C)C)c1NC(=O)Cn1c(=O)cnc2ccccc21 | 5
COc1ccc(C(=O)NC(NC(=O)c2ccc(OC)cc2)c2ccccc2F)cc1 | 16
O=C(CSc1ncn[nH]1)N1CCOCC1 | 12
Fc1ccccc1-n1cc(-c2ccccc2)[nH]c1=S | 1
CCc1ccc(NC(=O)c2ccccc2SC)cc1 | 15
Cc1ccc(S(=O)(=O)N2CCC(=O)N(CCOCc3cccc(F)c3)CC2)cc1 | 9
COC(=O)c1c(NC(=O)COC(=O)CNC(=O)c2ccco2)sc(C)c1C | 14
COc1ccc(CNC(=O)CN(C(=O)CCC(=O)Nc2ccccn2)c2cccc(C)c2)cc1 | 7
O=S(=O)(NC1=NCCCCC1)c1ccc2ccccc2c1 | 8
C=CCc1cc(C)ccc1OCCCC(C(=O)OCC)C(=O)OCC | 10
O=C(O)CSc1nnc(COc2cccc3cccnc23)n1-c1cccc(C(F)(F)F)c1 | 15
OCC(O)/C=N/Nc1nc2ccccc2s1 (centres undefined) | 2
Cc1ccc(NC(=O)N2CCc3ccccc32)cc1C | 14
CC(Sc1nnc(C(F)(F)F)n1C)C(=O)Nc1ccc(S(N)(=O)=O)cc1 (centres undefined) | 7
O=C(O)COc1ccc(/C=N/n2cnc3scc(-c4cccs4)c3c2=O)cc1 | 18
CCOc1ncccc1C(=O)N(C)CC(=O)Nc1ccc(F)cc1 | 11
COC(=O)C1=NNC2C(=O)N(c3ccc(C)cc3)C(=O)C12 (centres undefined) | 9
Cc1c(C(=O)O)cccc1-c1ccc(C=O)o1 | 17
FC(F)(F)c1ccc(Oc2ccc3cc(Br)ccc3c2)nc1 | 8
O=C(NNC(=O)c1cc2ccccc2o1)c1ccc(Cl)cc1 | 7
O=C(NCc1n[nH]c(=S)n1-c1ccc([N+](=O)[O-])cc1)c1ccc(S(=O)(=O)N2CCOCC2)cc1 | -2
O=[N+]([O-])c1cc(/C=N/O)ccc1N1CCCC1 | 2
Cc1ccc(OCC(O)CN2C(=O)NC(C)(C)C2=O)c(C)c1 (centres undefined) | 7
COc1cccc(NC(=S)N(CCc2ccc(OC)c(OC)c2)Cc2ccccn2)c1 | 17
SMILES | Calb biofilm kill
O=C(NCc1nc2ccccc2[nH]1)C1=C[C@H](c2ccc3c(c2)OCO3)C[C@H](OCCCCO)O1 | 17
CC(C)(C)c1ccc(C(CC(=O)O)NC(=O)CSc2ccccc2)cc1 (centres undefined) | 8
CCOC(=O)C(C)(C)N(Cc1ccccc1C)S(=O)(=O)c1ccc(Cl)c([N+](=O)[O-])c1 | 14
Cc1cc(NC(=O)CSc2nnnn2-c2ccc(C)c(C)c2)no1 | 28
O=C(Cc1ccccc1)NCCC1=CCCCC1 | 12
COc1ccc(Nc2nc(-c3ccccc3)c3ccccc3n2)cc1 | 18
Cc1ccc(-n2nc3cc(C)c(NC(=O)c4cccnc4)cc3n2)cc1 | 10
O=C(COc1ccc(/C=N/NC(=O)c2ccccc2O)cc1)Nc1ccc([N+](=O)[O-])cc1 | 17
CCc1cccc2c(C(=O)C(F)(F)F)cn(CC(=O)NCC3CCCO3)c12 (centres undefined) | 7
CN(C)CC#Cc1cncc(C(=O)NNC(=O)Nc2ccc(Cl)cc2)c1 | 10
COc1cc(O)c(CCO)c2c1C(=O)C[C@@H](C)O2 | 19
C/C(=N\Nc1nc(N2CCCCC2)nc(N2CCOCC2)n1)c1cccs1 | 15
COc1ccc(N2CCN(C(=O)Cn3cnc4c(cnn4-c4ccc(C)cc4)c3=O)CC2)cc1 | 5
O/N=C/c1cc(Br)cs1 | 27
COC(=O)c1ccccc1NC(=O)NC1CCCC1 | 12
COc1ccc(OCC(=O)c2c[nH]c3ccccc23)cc1 | 26
CCn1c(SCC(=O)OC)nnc1-c1ccncc1 | 1
COc1nc(N2CCCC2)nc(-n2nnc(C(C)=O)c2C)n1 | 14
O=[N+]([O-])c1cccc(C=Nc2cc3c(cc2Br)OCCO3)c1 | 6
COc1ccc(N2CCN(c3nc(Cl)nc(Nc4ccc(F)cc4)n3)CC2)cc1 | 4
CCC(C)NC(=O)c1ccc(C(=O)c2ccccc2)cc1 (centres undefined) | 10
CCn1c(COc2ccccc2)nc2ccccc21 | 3
Cc1ccc(NC(=O)c2ccccc2OCc2ccc([N+](=O)[O-])cc2)nc1 | 12
COc1ccc(C(=O)C2=NN(C(C)=O)CC2c2ccco2)cc1 (centres undefined) | 22
CC1CCc2c(C(=O)Nc3ccc(OC(F)(F)F)cc3)csc2C1 (centres undefined) | 16

A portion from the list above:
SMILES | Calb biofilm kill
CCn1c(COc2ccccc2)nc2ccccc21 | 3
Cc1ccc(NC(=O)c2ccccc2OCc2ccc([N+](=O)[O-])cc2)nc1 | 12
COc1ccc(C(=O)C2=NN(C(C)=O)CC2c2ccco2)cc1 (centres undefined) | 22
CC1CCc2c(C(=O)Nc3ccc(OC(F)(F)F)cc3)csc2C1 (centres undefined) | 16

(next part)
SMILES | Calb biofilm kill
COC(=O)C1=C(C)N(Cc2cccnc2)C(=O)/C1=C\c1cccs1 | 21
CCCOc1ccc(N2C(=O)CC(N3CCC(c4nc5ccccc5o4)CC3)C2=O)cc1 (centres undefined) | 12
CCC(=O)N(C1=C(NC)C(=O)c2ccccc2C1=O)C(C)C | 1
CC(=O)N1CCc2ccc(S(=O)(=O)Nc3ccccc3Cl)cc21 | 1
Cc1ccc(/C=N\NC(=O)c2cc([N+](=O)[O-])cc([N+](=O)[O-])c2)o1 | 18
COC(=O)c1ccc(COc2cccc3c2CCN(Cc2cccc(C)c2)C3=O)o1 | 11
COc1ccccc1N1CCN(C(=O)c2cccc3c(=O)c(C)c(-c4ccccc4)oc23)CC1 | 8
COc1ccc(NC(=O)c2ccc(NC(=O)CN(C)CC(=O)Nc3c(C)cccc3C)cc2)cc1 | -4
COc1ccc(/C=C(/C#N)c2cccnc2)cc1OC | 14
O=c1[nH][nH]c(-c2ccccc2O)c1C(C[N+](=O)[O-])c1ccc(Br)cc1 (centres undefined) | 17
C=CCNC(=S)Nc1cccc(NC(=S)NCC=C)c1 | 18
Cc1ccccc1OCC(=O)Nc1nnc(C2CCCCC2)s1 | 15
O=[N+]([O-])c1ccc(N/N=C/c2cn(Cc3ccc(F)cc3)c3ccccc23)nc1 | 4
COC(=O)c1ccc(C(=O)OC)c(NC(=O)CSCC(=O)O)c1 | -3
CCOC(=O)N1CCN(c2cccc(C)c2C)CC1 | 11
Cc1ccc(NC(=O)C2CC(=O)n3c(nc4ccccc43)N2)cc1Cl (centres undefined) | 4
CC(C)CNS(=O)(=O)c1cc(C(=O)O)c(Cl)cc1Cl | 16
COCCCNC(=O)c1c[nH]c2ccc(S(=O)(=O)N3CCc4ccccc43)cc2c1=O | 20
NS(=O)(=O)c1ccc(NC(=O)COC(=O)C2CCCCC2)cc1 | -18
CCN(CC)CCOC(=O)c1ccc(N/C=C(/C#N)c2nc(-c3cccc(OC)c3)cs2)cc1 | 9
Cc1c(CN(C)C(=O)c2ccc(Br)o2)cnn1C | 15
Nc1cccc(Oc2c(F)c(F)c(Oc3cccc(N)c3)c(F)c2F)c1 | 16
CC(C)c1ccc(NC(=O)C(c2ccccc2)N2CC(=O)Nc3ccccc32)cc1 (centres undefined) | 3
O=c1c2cc(-c3ccccc3)sc2nc2n1CCC2 | 10
O=C(NNC1OC(CO)C(O)C(O)C1O)c1cccc(Br)c1 (centres undefined) | 12

Of the compounds above, these have a cyano group.
SMILES | Calb biofilm kill
COc1ccc(/C=C(/C#N)c2cccnc2)cc1OC | 14
CCN(CC)CCOC(=O)c1ccc(N/C=C(/C#N)c2nc(-c3cccc(OC)c3)cs2)cc1 | 9

As entered above:
`CC(C)CNS(=O)(=O)c1cc(C(=O)O)c(Cl)cc1Cl` | Calb biofilm kill = 16
`CCOC(=O)N1CCN(c2cccc(C)c2C)CC1` | Calb biofilm kill = 11
`Cc1ccc(/C=N\NC(=O)c2cc([N+](=O)[O-])cc([N+](=O)[O-])c2)o1` | Calb biofilm kill = 18
`CC(C)c1ccc(NC(=O)C(c2ccccc2)N2CC(=O)Nc3ccccc32)cc1` (centres undefined) | Calb biofilm kill = 3

Following part
SMILES | Calb biofilm kill
C=CCN1C=C2C(=O)C(C)(OC(=O)CC)C(=O)C=C2C=C1CCCC (centres undefined) | 8
CSc1nc2cc(C)nn2c(-c2ccccc2)c1C#N | 15
CCCCN(C(=O)/C=C/c1ccc(OCC(C)C)c(OCC)c1)c1c(N)n(CCC)c(=O)[nH]c1=O | -8
Cc1cccc(OCC(=O)Nc2cccc(C(=O)Nc3ccccc3C(=O)O)c2)c1 | 19
O=c1c2cc(Br)ccc2nc(-c2ccc([N+](=O)[O-])cc2)n1O | 18
Cc1ccc(C)c(-c2csc(NC(=O)c3cnccn3)n2)c1 | 0
CCOC(=O)c1c(-c2ccc(C)s2)csc1N | 10
COc1ccc(C2/C=C\CN(C(=O)Oc3ccccc3)CC(=O)N2Cc2ccc(F)cc2)cc1 (centres undefined) | 20
CCCCN1C(=O)N(C)C2C1N(C)C(=O)N2CCCC (centres undefined) | -7
COc1ccc(C(C(=O)NC(C)(C)C)N(Cc2ccc(C)cc2)C(=O)CCC(=O)Nc2cc(C)on2)cc1 (centres undefined) | 11
CCOc1ccc(N2CCc3c(C)nc(SC)nc32)cc1 | 23
CC(C)c1ccc(NC(=S)N2CCN(Cc3ccccc3)CC2)cc1 | 5
CN(C)c1ccc(NC(N)=S)cc1 | -2
NC(=O)c1ccc(NC(=O)c2cccc(Oc3ccccc3)c2)cc1 | 12
CC1S/C(=N/N=C/c2cccc([N+](=O)[O-])c2)NC1=O (centres undefined) | 12
C(=N\Nc1nc2ccccc2s1)/c1ccc2c(c1)OCO2 | 11
COc1ccc(CCN=C(N)NS(=O)(=O)c2ccc(C)c(C)c2)cc1 | 21
CCNS(=O)(=O)c1ccc(NC(=O)c2cncc(Br)c2)cc1 | 7
CCCCCCCC(O)CC(CC1CCCCC1)C(=O)NN (centres undefined) | -7
O=C(c1cc2ccccc2oc1=O)N(c1ccccc1)C1C=CS(=O)(=O)C1 (centres undefined) | 12
Cc1ccc(C)c(OC(=O)c2ccncc2)c1 | 0
CC(=O)Nc1nc(CC(C)C)cc(-c2ccccc2)c1C#N | 17
Cn1c(N)c(C(=O)COC(=O)CC(NC(=O)c2ccccc2Cl)c2ccccc2)c(=O)n(C)c1=O (centres undefined) | 30
O=C(CCCN1C(=O)c2cccc3cccc(c23)C1=O)Nc1nccs1 | 23
Cc1cccc(N(C(=O)c2cnc3n(c2=O)CCS3)C2CCCCC2)c1 | 7
SMILES | Calb biofilm kill
COc1ccc(CSc2nncn2N)cc1[N+](=O)[O-] | 16
CN1c2ccsc2C(=O)/C(=C\Nc2cccc(C(F)(F)F)c2)S1(=O)=O | 13
CC(C)(Nc1ccccc1)C(=O)c1ccccc1 | 14
NC(=O)C1CCN(c2ccnc3cc(Cl)ccc23)CC1 | 11
FC(F)(F)COc1nc(N2CCOCC2)nc(N(c2ccccc2)c2ccccc2)n1 | -6
CC1(N(O)/C=C2\C=CC=CC2=O)CCCCC1=O (centres undefined) | 16

Screening data from PubChem.
